Screens deposited in PubChem BioAssay by several laboratories.
Mtb hypoxia inh: PubChem AID 1159583; M. tuberculosis hypoxia-regulated fluorescent reporter, fluorescence; fluorescence inhibition, % (no concentration beside the values); 0.1% of 300,000 active;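 active = 35 to 45% if threefold the growth effect, above 45% if 1.5-fold the growth effect; inactive = the rest, general growth blockers included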;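 also: wells of about 50 µL received 100 nL stock; 0% = vehicle wells and 100% = reference inhibitor wells; whole bacteria with a GFP reporter of the hypoxia response; strong numbers were not always called active; many hits fall short of the cut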
Bead autofluor: flagged as autofluorescent in microsphere protease counterscreen; AID 624483; 3.1% of 360,000 active; fluorescence intensity (no concentration beside the values); compound autofluorescence counterscreen, microsphere flow cytometry; active compounds read high;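 active = at least 3 SD above the mean of all compounds, about 16000 in these data; inconclusive = too few beads counted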;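 also: 100 nL of 1 mM stock went into each well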
Sa RN4220 lethal: growth inhibition of S. aureus RN4220, primary screen, OD600; 16 h; inhibition, % (concentration not given with the values); 0.33% of 330,000 active; AID 1259311, 2017;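 active = z-score of -3 or lower and OD600 up to 0.18 on both plates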;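 also: plate controls were untreated cells for no effect and reference antibiotic for full effect; stock transfer was 100 nL into about 80 µL; one replicate is shown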
Sa ugtP lethal: growth inhibition of ugtP-null S. aureus, primary screen, RN4220 ugtP deletion, OD600; 16 h; some inactives read as strong as hits; growth inhibition, % (test concentration not listed); 0.54% of 330,000 active; AID 1259309, 2017;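 active = z-score under -3 and OD600 up to 0.15 on both plates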;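 also: plate controls were untreated wells for no effect and antibiotic for full effect; wells of about 80 µL received 100 nL stock; the first replicate is given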
PrP UTR inh: inhibition of PrP 5' UTR reporter expression; inhibition, % (no concentration beside the values); cell-based PrP 5' UTR mRNA reporter, plate reader; 0.35% of 340,000 active;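 active = every replicate at 50% or more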;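 also: 0 = median of the neutral control wells; tested in H4 reporter cells; numbers are from one replicate; inactives centre near -14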
BJeLR viability: MLPCN primary cell-based screen for lethality selective to Ras in HRASV12 cells | inhibition, % (test concentration not listed) | 0.17% of 300,000 active | BJeLR (HRASV12) viability, CellTiter-Glo ATP luminescence, 48 h; reference of the scale not given here;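 active = replicate mean above 50%; inconclusive = above 50% but judged a plate artefact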;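 also: 50 nL library stock added to about 25 µL; numbers are from one replicate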
Mtb hypoxia inh growth: second read-out of Mtb hypoxia inh, no call of its own (marks repeat the call); growth inhibition, %; measured here: M. tuberculosis growth (absorbance);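 0% = vehicle and 100% = reference antibiotic; read after six days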
Numbers without * were called inactive; ? = inconclusive; · = not tested or not shown.

SMILES | Mtb hypoxia inh | Mtb hypoxia inh growth | Bead autofluor | Sa RN4220 lethal | Sa ugtP lethal | PrP UTR inh | BJeLR viability
CCCC(=O)NC(=S)Nc1ccccc1C(=O)OC | · | · | 2218 | -0.2 | 23 | -20 | 4
CC(C)(CO)CNC(=O)CCc1nnc(-c2ccc(-c3ccccc3)cc2)o1 | 5 | 9 | 4245 | -3.5 | -1 | -4 | -4
S=C(NCc1ccccc1)NCc1ccccc1Cl | 0 | -3 | ? | -2.4 | 11 | -6 | ·
O=C(CSc1nnc(CNC(=O)c2c(F)cccc2F)o1)NCC1CCCO1 (configuration not stated) | -1 | -2 | 5196 | 0.9 | 3 | -8 | 7
S=C(Nc1ccccn1)NC1CCCCC1 | -3 | 12 | 6115 | -0.9 | 8 | -25 | -1
CC(CCN1CCOCC1)c1ccccc1 (configuration not stated) | -5 | 6 | 3718 | 6.9 | 6 | -8 | 0
Cc1nc2ccc(S(=O)(=O)NC(C(=O)N3CCCCCC3)C(C)C)cc2s1 (configuration not stated) | · | · | 5838 | 4.4 | 9 | 12 | -9
COc1ccc(C)cc1NC(=O)C(NC(=O)c1cc(OC)c(OC)c(OC)c1)C(C)C (configuration not stated) | 9 | -1 | 4423 | 1.8 | -1 | -20 | 3
CCOC(=O)c1ccc(NC(=O)CC2C(=O)N(c3cccc(OC)c3)C(=O)N2CCOC)cc1 (configuration not stated) | · | · | 5352 | 2.3 | 0 | -6 | 1
Cn1c2ccc(F)cc2c2ncn(CC3CCCO3)c(=O)c21 (configuration not stated) | 13 | 10 | 3807 | 3.7 | 3 | -26 | -2
O=C(NCCCN1CCOCC1)c1ccc(N2CCOCC2)c([N+](=O)[O-])c1 | 15 | 8 | 5671 | 1.3 | -3 | -9 | -1
CCOC(=O)C(Cc1c[nH]c2cc([N+](=O)[O-])ccc12)(NC(C)=O)C(=O)OCC | -9 | 18 | 3738 | -0.6 | -6 | -23 | ·
Cc1nnsc1C(=O)Nc1cccc(Cl)c1C | -5 | 1 | 4485 | 4.0 | 1 | -31 | 8
CC(=O)c1ccc(NC(=O)c2cc(C)nc3ccccc23)cc1 | -3 | 6 | 4095 | -3.4 | -3 | -34 | 2
COc1ccccc1-c1nnc(SCC(=O)NC2CCCCC2)n1C | -1 | -8 | 3407 | 3.5 | 11 | -18 | -11
O=C1CN(C(=O)CN2CCCCC2)C(c2ccccc2)c2cc(Br)ccc2N1 (configuration not stated) | 3 | 7 | 7175 | 5.7 | -2 | -19 | 0
CCCn1c(/C=C/c2ccco2)nc2ccccc21 | 3 | 5 | 3012 | 2.3 | -6 | -28 | 2
COc1cc2ncnc(NCc3ccc(C)cc3)c2cc1OC | · | · | 2676 | 4.2 | 1 | -21 | 1
COC(=O)C1=C(c2ccc(-c3ccccc3)c(F)c2)CC2CCC1N2C(=O)NCCNC(C)=O (configuration not stated) | -2 | 12 | · | 6.1 | -14 | · | ·
C#CCOCCOCCOCCNc1nc(N2CCN(C(=O)[C@H](Cc3ccc(O)cc3)n3cc([C@@H](N)C(C)CC)nn3)CC2)nc(N2CCN(C(=O)[C@H](CCCCN)n3cc([C@@H](N)CO)nn3)CC2)n1 (some centres not stated) | · | · | 4119 | · | · | -10 | 0
Cc1ccc(C(C(=O)NC2CCCCC2)N(C(=O)c2csnn2)C2CC2)cc1 (configuration not stated) | 5 | 1 | 3773 | -1.6 | -2 | -10 | -3
CC(=NNc1nccnc1Cl)c1c(F)c(F)c(F)c(F)c1F | 1 | 3 | · | 0.1 | 5 | · | ·
COc1cccc(NC(=O)c2ccc(S(=O)(=O)N(C)C)cc2)c1 | 9 | -1 | 2534 | 2.1 | -3 | -26 | -1
CCN1CCN(C(=O)C2COc3ccccc3O2)CC1 (configuration not stated) | 10 | 7 | 5276 | 5.6 | 14 | 2 | 1
COc1ccccc1NC(=O)C(C)OC(=O)CCCc1c[nH]c2ccccc12 (configuration not stated) | 6 | 5 | ? | 4.7 | -1 | -18 | -5
SMILES | Mtb hypoxia inh | Mtb hypoxia inh growth | Bead autofluor | Sa RN4220 lethal | Sa ugtP lethal | PrP UTR inh | BJeLR viability
O=C(NC(Cc1ccccc1)C(=O)O)/C(=C\c1ccc(Cl)cc1)NC(=O)c1ccccc1 (configuration not stated) | -10 | -5 | 4186 | -0.7 | -6 | -35 | 2
CCNc1oc(-c2ccc(OC)cc2)nc1S(=O)(=O)c1ccc(Br)cc1 | 0 | 3 | 21449* | 5.1 | -1 | -12 | 18
NNC(=O)CNc1cccc(Cl)c1 | -2 | 6 | 4521 | 2.4 | -9 | -33 | 7
COc1ccc2ccccc2c1CNCCN1CCOCC1 | -2 | -1 | 3300 | 2.4 | -3 | -21 | -5
CC(=O)c1c(C)[nH]c(C(=O)NC(C)c2ccccc2)c1C (configuration not stated) | 19 | -1 | 4367 | 4.0 | -1 | -1 | 2
COC(=O)c1ccc(COC(=O)CNC(=O)c2ccc(OC)cc2)cc1 | 19 | 40 | 3806 | 2.2 | -1 | -55 | ·
CN(C(=O)c1ccc(NC(=O)Cc2ccc(NC(=O)C3CCN(C(=O)C4CCC4)CC3)cc2)cc1)C1CC1 | 17 | 6 | 2433 | 8.1 | 2 | -2 | ·
Cc1cc(C)c(S(=O)(=O)NC(CC(=O)O)c2cccc([N+](=O)[O-])c2)c(C)c1 (configuration not stated) | 0 | -16 | 3310 | 3.1 | -2 | -23 | 6
Cc1noc(C)c1COc1ccccc1C(=O)NNC(=O)C(C)Oc1ccccc1F (configuration not stated) | -1 | -6 | 6121 | 2.0 | 0 | -23 | 13
Cc1nnc(CN(C)C(=O)c2cc(COc3ccc(C)c(C)c3)on2)o1 | 1 | 5 | 5385 | 4.1 | 4 | -20 | -10
CC(O)(C#CCN1CCCCCC1)c1ccccc1 (configuration not stated) | -6 | 13 | 4630 | -0.3 | 1 | -29 | 4
CCOC(=O)c1ccccc1NC(=O)N1CCn2c(C)ccc2C1CC (configuration not stated) | 3 | 6 | 5039 | 4.4 | -9 | -2 | -1
COc1ccccc1CC(=O)Nc1cc2oc3ccccc3c2cc1OC | 11 | 4 | 3972 | -7.5 | 10 | -8 | 2
O=C(Nc1n[nH]c(=S)s1)c1ccc2ccccc2c1 | -6 | -4 | · | 7.3 | -6 | -77 | 4
COc1ccc(OC)c(NC(=O)C2CCCN(S(=O)(=O)c3cccc4cccnc34)C2)c1 (configuration not stated) | · | · | 4285 | -2.2 | 9 | -11 | 3
COC(=O)c1cn(NC(=O)CC2CCCCC2)c(=O)c2ccccc12 | 3 | 2 | 4233 | -0.1 | -1 | -16 | -3
CNC(=O)N1c2ccccc2NC(=O)CC1C (configuration not stated) | -4 | 9 | 2409 | 5.8 | 6 | -10 | -2
CS(=O)(=O)c1ccc(C(=O)NC2CCCCC2)cc1 | -1 | 6 | 6926 | -2.1 | -4 | -19 | 13
CCOC(=O)c1sc(=NC(=O)c2cccs2)n(C)c1C | 24 | 23 | 3292 | 4.7 | 3 | -43 | -5
N#C/C(C(=O)NCc1ccco1)=C1/SC(Cc2ccc(Cl)cc2)C(=O)N1c1ccccc1 (configuration not stated) | · | · | 2209 | 0.1 | -1 | -9 | -7
N#C/C(=C\c1cn(-c2ccccc2)nc1-c1cccnc1)c1nnc2n1CCCCC2 | 0 | 1 | 15743 | 2.0 | -13 | 3 | -5
O=C(Nc1ccncc1)c1ccc(Cl)c(S(=O)(=O)N2CCCCC2)c1 | 7 | 8 | ? | 4.7 | -1 | 15 | 8
Cc1cc(C)n2nc(NCc3cccc(Br)c3)nc2n1 | -14 | 10 | 6600 | -0.8 | -8 | 5 | -3
CCn1c(O)c(N=NC(=O)CNc2cccc(C)c2)c2ccccc21 | 0 | 14 | 2637 | 3.1 | -8 | -12 | 3
COc1cc(C)c(Cl)cc1S(=O)(=O)NCc1ccncc1 | · | · | · | 12 | 11 | · | 6
SMILES | Mtb hypoxia inh | Mtb hypoxia inh growth | Bead autofluor | Sa RN4220 lethal | Sa ugtP lethal | PrP UTR inh | BJeLR viability
CCOCCCn1c(=S)[nH]c2cc(C(=O)NCCN(CC)CC)ccc2c1=O | -7 | 9 | 10567 | -3.1 | -6 | -14 | 1
COc1ccc(N2CCN(C(=O)CCS(=O)(=O)c3ccc(OC)cc3)CC2)cc1 | 1 | 4 | 2573 | -0.6 | -9 | -22 | -12
CC1CCN(c2ncnc3c2cnn3-c2ccccc2)CC1 | 13 | 17 | 4149 | 3.8 | 12 | -77 | 2
O=C(c1ccccc1)N1CCN(CC(O)COC2CCCCC2)CC1 (configuration not stated) | 18 | 8 | 2128 | 4.1 | 17 | -30 | -8
CC(=O)Nc1cc2c(c(Cl)c1Cl)-c1ccccc1C2=O | 2 | -2 | 2774 | 2.0 | 3 | -19 | ·
CSc1nc(C)c(Oc2ccccc2)c(=O)n1C | · | · | 3749 | 0.9 | 3 | -9 | -2
CC(C)(C)c1cc(Cl)c(O)c(NC(=S)NC(=O)c2cccnc2)c1 | -10 | 5 | 4619 | 35 | 14 | -20 | 7
Cc1ccc(C(=O)N(CCN(C)C)CC2CCCN(Cc3ccccc3F)C2)cc1C (configuration not stated) | 11 | 4 | 4489 | 3.9 | 11 | -3 | -12
COc1cc(C(=O)Nc2nc3ccccc3[nH]2)ccc1OC(F)F | -2 | -11 | 4408 | 3.9 | 12 | -72 | -7
Cc1ccc(C(=O)COC(=O)c2cccc(O)c2)s1 | 1 | 2 | 4271 | 2.3 | 1 | -56 | ·
CC(C)Cc1cc(C(=O)Nc2cc(Cl)ccc2Cl)no1 | 2 | 13 | 5532 | -15 | 1 | -13 | -5
COc1ccc(NC(=O)COC(=O)C2CC2)c(OC)c1 | 17 | 6 | · | 4.8 | 4 | · | ·
O=C(c1cc(-c2ccccc2)on1)N1CCC2(CC1)OCCO2 | 13 | 5 | · | 5.2 | 9 | · | 1
Cc1c(CC(=O)N2CCN(C(=O)C3COc4ccccc4O3)CC2)c(=O)oc2c(C)c(O)ccc12 (configuration not stated) | · | · | 5732 | · | · | -15 | 6
CCN(CC)CCCNC(=O)Cn1cnc2ccc(S(=O)(=O)N3CCC(C)CC3)cc2c1=O | 3 | -11 | 3671 | 6.4 | 14 | -19 | 0

Part of the list above in another layout:
canonical_smiles	Mtb hypoxia inh	Mtb hypoxia inh growth	Bead autofluor	Sa RN4220 lethal	Sa ugtP lethal	PrP UTR inh	BJeLR viability
CCOCCCn1c(=S)[nH]c2cc(C(=O)NCCN(CC)CC)ccc2c1=O	-7	9	10567	-3.1	-6	-14	1
COc1ccc(N2CCN(C(=O)CCS(=O)(=O)c3ccc(OC)cc3)CC2)cc1	1	4	2573	-0.6	-9	-22	-12
CC1CCN(c2ncnc3c2cnn3-c2ccccc2)CC1	13	17	4149	3.8	12	-77	2
O=C(c1ccccc1)N1CCN(CC(O)COC2CCCCC2)CC1 (configuration not stated)	18	8	2128	4.1	17	-30	-8
CC(=O)Nc1cc2c(c(Cl)c1Cl)-c1ccccc1C2=O	2	-2	2774	2.0	3	-19	·
CSc1nc(C)c(Oc2ccccc2)c(=O)n1C	·	·	3749	0.9	3	-9	-2
CC(C)(C)c1cc(Cl)c(O)c(NC(=S)NC(=O)c2cccnc2)c1	-10	5	4619	35	14	-20	7
Cc1ccc(C(=O)N(CCN(C)C)CC2CCCN(Cc3ccccc3F)C2)cc1C (configuration not stated)	11	4	4489	3.9	11	-3	-12
COc1cc(C(=O)Nc2nc3ccccc3[nH]2)ccc1OC(F)F	-2	-11	4408	3.9	12	-72	-7
Cc1ccc(C(=O)COC(=O)c2cccc(O)c2)s1	1	2	4271	2.3	1	-56	·
CC(C)Cc1cc(C(=O)Nc2cc(Cl)ccc2Cl)no1	2	13	5532	-15	1	-13	-5
